Assay outcomes: PubChem BioAssay, ICCB-Longwood Screening Facility, Harvard Medical School
Ba CapD inh = blocks the Bacillus anthracis CapD enzyme; purified CapD enzyme, fluorescence intensity read-out; stronger effect = lower value; some hits fall short of the stated cut; z-score (test concentration not listed); 0.23% of 140,000 active;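 active = z-score under -4 in either of two replicates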;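 also: stock transfer was 100 nL into about 40 µL; score is relative to mean and spread of the plate; one replicate is shown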
AID504770 = E. coli YBA685 growth inhibition, screen for V. cholerae RctB inhibitors; E. coli YBA685 rctB-dependent plasmid, OD600 growth, 3 h; stronger effect = lower value; 0.27% of 130,000 active; z-score (test concentration not listed);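 active = z-score under -2 on both plates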;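 also: wells of about 30 µL received 100 nL stock; score is relative to mean and SD of the test wells; the first replicate is given; strong numbers were not always called active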
The depositor's hits bear a star; i = inactive; nt = not tested or not shown.

SMILES | Ba CapD inh | AID504770
CC(C)NC(=O)n1ncc(S(=O)(=O)c2ccc(Cl)cc2)c1-c1ccc(Cl)cc1 | 9.2 | 1.5
COC(=O)CC12CC3CC(C1)CC(CC(=O)OC)(C3)C2 | 0.93 | nt
Cc1nnsc1-c1noc(CS(=O)(=O)c2ccc(Cl)cc2)n1 | 0.14 | -1
COC(=O)c1ccc2c(c1)C(=O)/C(=C\c1ccccc1O)O2 | 0.25 | 0.35
CCC(COc1nnnc2ccccc12)NC(=O)c1cnc(C)cn1 (stereo unspecified) | 0.73 | -0.35
COc1ccc(/C=c2\sc3n(c2=O)C(c2c(OC)ccc4ccccc24)C(C(C)=O)=C(C)N=3)cc1OC (stereo unspecified) | -0.31 | nt
O=[N+]([O-])c1cc(S(=O)(=O)N2CCCCCC2)cc2c1-c1c(cc(S(=O)(=O)N3CCCCCC3)cc1[N+](=O)[O-])C2=NO | 0.065 | nt
NCC1CCN(C2CCCC2)CC1 | nt | 0.1
Cc1ccc(/C=C2/C=CC(=O)O2)o1 | -5.2* | -1.5
Oc1cc(C2CCCCC2)cc(C2CCCCC2)c1 | -1.1 | -0.3
O=C(CCS(=O)(=O)c1ccc2[nH]c(=O)oc2c1)N1CCc2ccccc21 | 0.61 | 0.1
Cc1ccc(C)n1-c1ccc(C(=O)N2CCCCC2C)cc1 (stereo unspecified) | nt | -0.05
CCn1c2ccccc2c2cc(N=Cc3ccc(OC(=O)c4ccco4)cc3)ccc21 | nt | 1.7
Cn1c(=O)oc2cc(S(=O)(=O)NCCCN3CCN(c4cccc(Cl)c4)CC3)ccc21 | -0.41 | -0.5
CS(=O)(=O)Nc1cccc(C(=O)OC2CCOC2=O)c1 (stereo unspecified) | nt | -0.05
COC(=O)c1cc(N2C(=O)C3C4C=CC(O4)C3C2=O)ccc1Cl (stereo unspecified) | 0.37 | nt
COc1cc(/C=N/NC(=O)/C=C/c2ccc3c(c2)OCO3)cc(Br)c1OC | 3.3 | nt
CCOC(=O)Cn1c(=O)c(-c2nc(-c3ccccc3)cs2)cn(C(C)C)c1=O | 54 | 0.5
CN(C)c1oc(COc2ccc(F)cc2)nc1C#N | -0.035 | -0.45
O=C(Cn1c(NCCO)nc2ccccc21)N1CCOCC1 | nt | -0.2
COc1ccc(CC(=O)OCC(=O)Nc2ccc3c(c2)OCO3)cc1 | nt | -0.35
COc1ccc(C2(c3ccccc3C)C=Cc3c(ccc4ccc(OC(=O)C(C)C)cc34)O2)cc1 (stereo unspecified) | -0.47 | nt
CC(=O)NCc1ccc(C(=O)CSc2nc(C3CC3)n(-c3ccccc3)n2)s1 | nt | -0.5
CCCN(CCC)C(=O)Cn1c2ccccc2c2nc(=O)cc(C)n21 | -0.53 | 0.7
Cc1ccc(Nc2cc(N3CCCC3)c3noc4c3c2C(=O)c2ccccc2-4)cc1 | -0.46 | nt
NNC(=S)NCc1ccc2c(c1)OCO2 | nt | -0.2
Cc1cc(CSc2ccccc2C(=O)OCc2nc3sc4c(c3c(=O)[nH]2)CCC4)no1 | nt | 0.7
O=C(Nc1ccc2c(c1)nc1n2CCCCC1)c1ccc(S(=O)(=O)C(F)F)cc1 | nt | 0.55
CC(C)CCNC(=O)c1cc2ccc3cccnc3c2[nH]1 | 0.9 | 0.8
Cc1c(CC(=O)N2CCOCC2)c(=O)oc2cc3occ(-c4ccc(F)cc4)c3cc12 | 9.6 | 0.15
O=C(CCCn1c(=O)c2cccn2c2ccccc21)N1CCc2ccccc21 | -0.22 | -1.1
Cc1cccc(C2=Nc3ccccc3N=C(c3cc(C)ccc3O)C2)c1 | -0.56 | nt
O=S(=O)(c1cccc(F)c1)N1CCN(Cc2ccc3ccccc3c2)CC1 | 0.52 | nt
CCN(CC)c1ccc(-c2cc(C(=O)O)c3c(ccc4ccccc43)n2)cc1 | 19 | 1.1
c1coc(C2=Nc3ccccc3SC(c3ccc4c(c3)OCO4)C2)c1 (stereo unspecified) | -0.72 | nt
COc1cccc(CN2CCC(NC(=O)CCc3c[nH]c4ccccc34)C2)c1[N+](=O)[O-] (stereo unspecified) | 0.31 | nt
Cc1nnc(-c2cccc(S(=O)(=O)N3CCCC3c3ccc(F)cc3)c2)o1 (stereo unspecified) | -0.6 | -0.3
CC1(C)CC(NC(=O)COC(=O)CCc2ccc(S(=O)(=O)N3CCCCC3)cc2)CC(C)(C)N1 | nt | -0.45
NC(=O)COC(=O)CCN1c2ccccc2Sc2ccccc21 | nt | 0.65
COc1cccc(/C=C2/Sc3ccc(C(=O)N4CC(C)CC(C)C4)cc3NC2=O)c1 (stereo unspecified) | 1.9 | -0.75
CCN1C(=O)c2ccc(C(=O)Nc3nccs3)cc2C1=O | -1.4 | 2.4
O=C(CSc1cnc2ccccc2n1)NC1CCS(=O)(=O)C1 (stereo unspecified) | 1 | -0.65
COc1ccc(COC(=O)C2=C(C)NC3=C(C(=O)CC(C)(C)C3)C2c2coc3ccc(C)cc3c2=O)cc1 (stereo unspecified) | -0.58 | nt
O=C(O)CCc1nc2sc3c(c2c(=O)[nH]1)CCCC3 | i | 1.8
O=C1/C(=C/c2cccnc2)SC(=S)N1C1CCCC1 | nt | 0.2

Reprinted at random: 5 entries already listed
SMILES | Ba CapD inh | AID504770
O=C(CCCn1c(=O)c2cccn2c2ccccc21)N1CCc2ccccc21 | -0.22 | -1.1
NC(=O)COC(=O)CCN1c2ccccc2Sc2ccccc21 | nt | 0.65
c1coc(C2=Nc3ccccc3SC(c3ccc4c(c3)OCO4)C2)c1 (stereo unspecified) | -0.72 | nt
Cc1cccc(C2=Nc3ccccc3N=C(c3cc(C)ccc3O)C2)c1 | -0.56 | nt
O=C(O)CCc1nc2sc3c(c2c(=O)[nH]1)CCCC3 | i | 1.8

The results go on.
SMILES | Ba CapD inh | AID504770
COc1ccccc1N1CCN(CCC(=O)Nc2ccc3c(c2)CCC3)CC1 | -0.1 | 0.65
N#Cc1c(N2C(=O)C3C4C=CC(C4)C3C2=O)sc2c1CCCC2 (stereo unspecified) | nt | -0.75
CN(C)CCS(C)(=O)=O | 0.49 | -1.6
CCOC(=O)CCSC1=NC(c2cccs2)C(C(=O)OCC)=C(C)N1 (stereo unspecified) | -0.35 | nt
ON=C1CC2C3C/C(=N\O)C4C3CC2C14 (stereo unspecified) | nt | -0.65
CCOC(=O)CN1C(c2cccc(Cl)c2)=Nc2ccc(Br)cc2C1c1ccccc1 (stereo unspecified) | -0.18 | nt
COc1cccc(C2(O)CC(C(F)(F)F)=NN2C(=O)c2ccc(C(C)(C)C)cc2)c1 (stereo unspecified) | -1.5 | nt
C=CCn1c(=N)n(CC(=O)OC)c2ccccc21 | -0.01 | 0.25
Cc1cccc(N=Nc2cnc(-c3ccncc3)nc2-c2cccs2)c1 | -0.1 | nt
COc1ccc(S(=O)(=O)N2CCC(CN3C(=O)c4cccc5cccc(c45)C3=O)CC2)cc1 | 39 | nt
O=C(O)c1ccc(Cl)cc1C(=O)O | -0.51 | nt
CC(C)OC(=O)CNc1n[nH]c(=S)[nH]c1=O | -2.7 | 1.1
Nc1ccc(Sc2ccc(N)cc2)cc1 | -0.17 | -0.4
CC1OCN(c2ccc(F)cc2)Cn2c1nc1ccccc12 (stereo unspecified) | 0.34 | 0.05
COc1ccc(-c2ccc(=O)n(CC(=O)N(C)c3ccccc3)n2)cc1 | -0.67 | -0.25
COc1ccc(C2C(C#N)=C(N)OC3=C2C(=O)CC(c2ccco2)C3)cc1OC(=O)N1CCOCC1 (stereo unspecified) | 0 | nt
CC(=O)Nc1cc2c(s1)CCCC2 | -0.51 | -0.1
Oc1ccccc1C=Nc1ccc(Br)cc1 | -0.55 | -0.7
CC(C)CCNC(=O)Cn1c(=O)c2cccn2c2ccc(F)cc21 | 1.3 | -0.45
CCN(CC)c1ncnc2sc3c(c12)CCC3 | -0.03 | 1.4
COc1ccc(C)cc1Nc1nc2ccc(C)cc2n2cnnc12 | 0.64 | -1.2
O=C(Nc1nncs1)c1cccn(Cc2ccc(Cl)c(Cl)c2)c1=O | 4.3 | nt
COC(=O)c1ccc(C(=O)Nc2ccc(S(=O)(=O)Nc3nc(C)cc(C)n3)cc2)cc1 | -0.21 | nt
CNC(=O)C1CCN(C(=O)N2CC(C)Oc3ccccc32)CC1 (stereo unspecified) | -0.34 | 0.2
CNC(=O)c1cccc(NC(=S)NC)c1 | 0.29 | -0.35
CCCNC(=O)c1cc(C)c2c(C)nn(-c3ccccc3)c2n1 | 3.1 | -0.55
COC(=O)Cc1nc(Nc2cc(OC)c(OC)c(OC)c2)c2c(C)c(C)sc2n1 | -0.76 | nt
Cc1ccc(C)n1CCN1CCN(S(=O)(=O)c2cc(Br)c(Br)s2)CC1 | -0.65 | 3
c1cc[n+](C[n+]2ccccc2)cc1 | 0.02 | -1.1
NC(=O)CSc1nc2scc(-c3ccco3)c2c(=O)n1-c1ccccc1 | nt | 1.1
CC(C)(C)Nc1ncnc2c1sc1nc3c(cc12)COC(C)(C)C3 | 0.8 | -0.4
CC1CN(C(=O)CS(=O)(=O)c2ccc(F)cc2)CC(C)O1 (stereo unspecified) | 0.73 | -0.05
O=C(Nc1ccncc1)OC1CCCC1 | nt | -0.1
CCOC(=O)N1CCN(C(=O)c2noc3c2CCCC3)CC1 | -0.91 | 0.65
N#CC1=CN(Cc2ccccc2)C=C(/C=N/Nc2ccc(F)cc2)C1 | nt | -0.9
COCCOC(=O)c1c(C)oc2ccc(NS(=O)(=O)c3cc(C)ccc3C)cc12 | 0.36 | nt
Cc1c(C=Nc2ccc(C(C)C)cc2)sc2ccccc12 | -2.8 | -0.35
COc1cccc(C=Nc2ccccc2N2C(=O)c3ccccc3C2=O)c1O | -0.49 | 0.75
CN(C(=O)CSC1=NCCS1)c1ccccc1 | 0.36 | 0.05
CCn1nnc(NC(=O)Cc2ccccc2)n1 | -0.12 | 0.6
CN(Cc1ccccc1)c1ncnc2ccc(Br)cc12 | -0.26 | 2
Cc1c(C(=O)Nc2ccc3c(c2)OCCO3)sc2ncnc(N3CCc4ccccc4C3)c12 | -1.1 | nt
Fc1ccc(Cn2nnc3ccccc32)cc1 | -0.73 | -0.85
CC1CN(C(C#N)c2c(F)cccc2Cl)CC(C)O1 (stereo unspecified) | -0.28 | -2.2
C=CCn1c(CSc2nc3ccccc3s2)nnc1SCC(=O)NCCN1CCOCC1 | nt | -0.35
Cc1onc(-c2ccccc2)c1C(=O)N1CCCSC1=Nc1ccccc1 | nt | -0.25
COc1ccccc1NC(=O)c1cc2ccccc2o/c1=N\c1sc2c(c1C(N)=O)CCCC2 | 0.11 | nt
COc1cccc(-c2coc3cc4oc(=O)cc(C)c4cc23)c1 | 0.18 | 1.2
Cc1cc(N(C)Cc2ccccc2)nc2cc(O)ccc12 | 21 | 1.7
COc1cc2ncnc(NCc3cccc(C(F)(F)F)c3)c2cc1OC | 8.1 | nt
c1cnc2nc3c(cc2c1)CNCC3 | 4.5 | nt
O=[N+]([O-])c1c(NCCCO)cc(N2CCN(c3ccccn3)CC2)c2nonc12 | -1.1 | nt
O=C1c2ccccc2C(=O)N1Cc1ccncc1 | 0.86 | -0.4
CCN(CC)C(=O)COc1ccc2c(c1)C(=O)CC1(CCN(C(C)=O)CC1)O2 | 45 | 0.7
c1ccc(CCn2nnnc2C(c2cccnc2)N2CCCCC2)cc1 (stereo unspecified) | nt | -0.65
Cc1ccc2cc(CCNC(=O)/C=C\c3ccccc3)c(=O)[nH]c2c1 | 0.11 | 2.3
O=C(COn1nnc2ccc(S(=O)(=O)N3CCOCC3)cc21)N1CCCc2ccccc21 | nt | -0.5
CCOc1ccc2c(c1)OC(c1ccc(OC)cc1)(C(F)(F)F)NC2=O (stereo unspecified) | nt | -0.45
C=CCn1c(-c2ccc(OC)cc2)c(C)sc1=Nc1ccc(C)cc1 | 0.2 | 0.9
CCCC(=O)NCc1nc2ccccc2n1Cc1cc(C)ccc1C | -0.33 | 0.3

Whole records as entered above:
`O=C1c2ccccc2C(=O)N1Cc1ccncc1` is entered as Ba CapD inh = 0.86; AID504770 = -0.4
`COc1cc2ncnc(NCc3cccc(C(F)(F)F)c3)c2cc1OC` is entered as Ba CapD inh = 8.1; AID504770 = nt
`c1ccc(CCn2nnnc2C(c2cccnc2)N2CCCCC2)cc1` (stereo unspecified) is entered as Ba CapD inh = nt; AID504770 = -0.65

Compounds above that have a COOH group, in the order listed:
SMILES | Ba CapD inh | AID504770
CCN(CC)c1ccc(-c2cc(C(=O)O)c3c(ccc4ccccc43)n2)cc1 | 19 | 1.1
O=C(O)CCc1nc2sc3c(c2c(=O)[nH]1)CCCC3 | i | 1.8
O=C(O)c1ccc(Cl)cc1C(=O)O | -0.51 | nt

(cont.)
SMILES | Ba CapD inh | AID504770
COc1ccc(C2CC(=O)C3=C(C2)NC(C)=C(C(=O)Nc2ccc(C)cc2)C3c2ccccc2)cc1OC (stereo unspecified) | 37 | 2
CC(=O)N1c2ccccc2CC1C(=O)N1CCN(c2ccc(Cl)cc2)CC1 (stereo unspecified) | 0.17 | 0.2
CCOC(=O)C1=C(C)OC(N)=C(C#N)C1c1ccc2c(c1)OCO2 (stereo unspecified) | 4.2 | nt
COc1cc(S(=O)(=O)n2cccn2)c(OC)cc1Cl | nt | 0.5
CNCCc1nc(N)n[nH]1 | 0.41 | 0
CCCOc1ccc(C(=O)CCC(N)=O)cc1 | nt | 0.1
Cc1cccc(CSC(=N)N)c1 | nt | -0.2
C=CCn1c2ccccc2c2nnc(SCC(=O)NC(C)(C)C)nc21 | -0.52 | 0.9
Oc1ccc(/C=N\N2CCN(c3ccccc3)CC2)cc1 | 0.17 | -0.2
Cc1ccc(CN2CCN(N=Cc3ccccc3O)CC2)c(C)c1 | 0.045 | 1.5
